# Screens (PubChem BioAssay)
# NPYLR7 agonist: mosquito NPYLR7 agonism; HEK293T NPYLR7/Galpha15, GCaMP6s calcium fluorescence; activation, % at 10 µM; AID 1259423; 270,000 compounds, 0.15% hits; in the data active = activation above about 40%;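 note: 0% = vehicle and 100% = reference agonist at the receptor; some compounds past the cut are filed as inactive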
# NPYLR7 agonist max-min: further read-out of NPYLR7 agonist, marked with its call; activation, %; measured here: Max-Min RFU normalised activation; some inactives read as strong as hits;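 span of the calcium signal over five minutes; 0% = vehicle and 100% = native peptide agonist; compound fluorescence can raise it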
# The depositor's hits bear a star; & = joins results of further samples.
# Screens in order – NPYLR7 agonist, NPYLR7 agonist max-min
OCC#Cc1csc(CN2CCN(c3nccc4ccccc34)CC2)c1
→ 7, -3
O=C(CN(Cc1ccccc1)C(=O)CSc1ccccc1)Nc1cc(-c2ccccc2)nn1-c1ccc(F)cc1
→ -2, 5
COc1ccccc1NC(=O)Cn1nc(-c2cccs2)oc1=O
→ 3, 9
CCOCN(C(=O)Cn1c(COC)nc2ccccc21)c1c(C)cccc1CC
→ 1, -3
O=C(Cc1c(F)cccc1Cl)Nc1nc2c(s1)CCCC2
→ -6, -9
O=C(COc1ccc(Cl)cc1)NCC(c1ccco1)N1CCc2ccccc21 (stereo unspecified)
→ 8, 3
CC(C)(C)Nc1c(-c2ccccc2)nc2ccc(Br)cn12
→ -5, 5
CC(C)c1nnc2sc(C3CCCN(C4CCCC4)C3)nn12 (stereo unspecified)
→ -4, -7
Cc1nc2ccccc2nc1NCCSCCCO
→ 9, 5
CCOC(=O)[C@H]1C[C@@H]2O[C@H]1[C@H]1CN(C(=O)Nc3ccccc3)C[C@H]1[C@@H]2O
→ 9, 19
N#Cc1ccccc1C(=O)N1CCOC(COc2cccc(C(F)(F)F)c2)C1 (stereo unspecified)
→ -3, -8
COc1cc(CSc2ncc(CO)n2Cc2ccc(F)cc2)cc(OC)c1
→ 8, 5
Cc1nn(Cc2ccc(F)cc2)c(=O)c2c1cnn2-c1cccc(Cl)c1
→ 8, 2
C=CCN(Cc1ccc(Br)s1)C(=O)Cn1cnc(C#N)n1
→ 6, 4
COc1ccc2cc(/C=C/C(=O)N3CCNC(=O)C3)ccc2c1
→ 0, -1
COC(=O)CC(NC(=O)Nc1ccc(F)cc1)C(=O)OC (stereo unspecified)
→ -3, -3
CCC(NC(=O)N(C)Cc1c(C)noc1C)c1c(C)nn(C)c1C (stereo unspecified)
→ 2, -3
O=C1CCC(CCC(=O)N2CCN(C(=O)c3ccco3)CC2)(Cc2ccc(-c3ccccc3)cc2)N1 (stereo unspecified)
→ 24, 8
CCCc1nc(N2CCN(C(=O)NC3CCCCC3)CC2)c2c(-c3cccc(C(F)(F)F)c3)noc2n1
→ 20, 7
COc1ccc(NC(=O)C2(N3Cc4ccc(Nc5ccncc5)nc4C3=O)CC2)cc1
→ -2, -2
CC1=C(C(=O)N2CCCC(N3CCN(c4cccc(C(F)(F)F)c4)CC3)C2)OCCO1 (stereo unspecified)
→ -5, -7
Cc1ccc(F)cc1C(=O)N1CCC2(CC1)OCc1cc(-c3ccccc3)ccc1O2
→ 5, -7
Cc1nn(C)c2nc(C(C)C)cc(C(=O)N3CCC4(CCOCC4)C3)c12
→ 3, 2
O=C(NC1=N[C@@]23CO[C@H](c4ccccc4)C[C@@H]2CC(=O)[C@H]3S1)NC1CCCCC1
→ 1, 1
CC(C)(C)C(=O)CN1C(=O)NC(C)(c2ccc(Cl)cc2)C1=O (stereo unspecified)
→ 12, 5
COc1ccccc1C(=O)Nc1cccc(C2SCC(=O)N2c2ccc(C(F)(F)F)cc2)c1 (stereo unspecified)
→ 4, 4
CCNc1ccnc(N2CCN(Cc3ncccc3C)CC2)n1
→ -2, -1
COc1ccc(OC)c(-c2nc(CN3CCN(C)C(=O)C3)c(C)o2)c1
→ 4, -3
O=C(O)c1cc2ccccc2n1-c1ccccc1
→ -5, 5
Oc1c(Br)cc(C=NNc2ccccn2)cc1Br
→ 5, 5
c1ccc(C2CCCN2Cc2cnc(N3CCCC3)nc2)nc1 (stereo unspecified)
→ 4, -4
Cc1ccc(C(C)NC(=O)CSc2nnc(SCC(N)=O)s2)cc1C (stereo unspecified)
→ 20, 16
CCN1C(=O)CC(CC(=O)N2CCN(c3cnccn3)CC2)(c2cccc(C(F)(F)F)c2)C1=O (stereo unspecified)
→ 15, 2
CCN(CC)S(=O)(=O)c1ccc(Cl)c(NC(=O)COC(=O)c2ccnc(Cl)c2)c1
→ -8, -11
OCCn1ncc2c1CN(c1ncc(F)c(N3CCOCC3)n1)C2
→ 2, 2
COCCCN(Cc1ccc(OS(C)(=O)=O)cc1)C(=O)Nc1ccc(SC)cc1
→ 25, 23
O=C1NCC(=O)N2CCN(C(=O)N3CCOCC3)C[C@H]12
→ -7, -11
O=C(NC1CCN(c2ccccc2C(=O)NCc2ccc(F)cc2)CC1)c1cccc(F)c1
→ -6, -4
CCCSc1ccnc2c1c(=O)n(C)c(=O)n2C
→ 5, 10
CCC(C)C(NC(=O)Nc1cccc(F)c1)C(=O)Nc1nnc(-c2cccc(Br)c2)s1 (stereo unspecified)
→ -5, 3

# Complete entries as entered above. Order of values: NPYLR7 agonist	NPYLR7 agonist max-min
# Cc1ccc(C(C)NC(=O)CSc2nnc(SCC(N)=O)s2)cc1C (stereo unspecified) is listed as 20	16
# O=C(NC1CCN(c2ccccc2C(=O)NCc2ccc(F)cc2)CC1)c1cccc(F)c1 is listed as -6	-4
# CCC(C)C(NC(=O)Nc1cccc(F)c1)C(=O)Nc1nnc(-c2cccc(Br)c2)s1 (stereo unspecified) is listed as -5	3
# CCCSc1ccnc2c1c(=O)n(C)c(=O)n2C is listed as 5	10
# CCNc1ccnc(N2CCN(Cc3ncccc3C)CC2)n1 is listed as -2	-1

# (listing goes on)
# Screens in order – NPYLR7 agonist, NPYLR7 agonist max-min
O=C(c1cccc([N+](=O)[O-])c1)N1CCCN(c2nc(C3CCOCC3)nc3c2cnn3-c2ccccc2)CC1
→ -7, 0
C=CCn1c(SCC(=O)NCc2ccco2)nc2ccccc2c1=O
→ -5, -8
CCCC(C)c1nnc(NC(=O)c2ccccc2-n2cncn2)s1 (stereo unspecified)
→ 8, 0
O=C(CN1C(=O)c2ccccc2C1=O)N1CCN(c2ccccn2)CC1
→ 8, 9
CC(C)N1CCCC(C)(C(=O)Nc2nccc3cccnc23)C1 (stereo unspecified)
→ 0, 0
CNS(=O)(=O)c1cc(OCC(N)=O)c(C)cc1Cl
→ 10, 22
COc1cc(CNC(=O)c2c(C)noc2-c2ccc3c(c2)OCO3)cc(OC)c1
→ 6, 5
Cc1cc(N2CCCC(c3nn(C)c(=O)n3-c3ccccc3)C2)nc(N)n1 (stereo unspecified)
→ 2, 2
COc1cccc(CC2CN(Cc3nc[nH]c3C)CCO2)c1 (stereo unspecified)
→ 7, 4
COc1cccc(CN(Cc2ccc(C(O)(CC3CCC3)CC3CCC3)o2)CC2CCCO2)c1 (stereo unspecified)
→ 8, 11
Cc1nnc(-c2ccccc2NC(=O)C2(N)CC2)o1
→ 4, -8
CSc1nc2n(n1)C(c1ccccc1)C(C#N)C(N)=N2 (stereo unspecified)
→ -2, -5
CC1(C)ON=C(c2ccco2)N(Cc2ccc(S(C)(=O)=O)cc2)C1=O
→ -1, 0
COc1ccc2nc(-c3ccc(C)c(NC(=O)C4CC4)c3)cn2n1
→ -12, -16
O=C(OCC(=O)N1CCc2ccccc2C1)c1ccc2c(c1)OCCO2
→ 5, 0
Cc1cc(C)c(NC(=O)CN(C)C(=O)C2CCN(Cc3nccn3C)CC2)c(C)c1
→ -1, -1
CCCCNC(=O)c1c(O)nc2c(C)cccn2c1=O
→ 2, 12
N#CCCNC12CC3CC(CC(C3)C1)C2
→ 3, 3
CC(C)CC(NC(=O)c1cccs1)C(=O)N1CCc2c(nc[nH]c2=O)C1 (stereo unspecified)
→ 6, 2
O=C(CSc1nc(-c2ccccc2)c(NC(=O)C2CCCC2)s1)NC1CC1
→ -9, -15
O=C(Nc1cc(C(F)(F)F)ccc1Cl)N1CC(=O)N2CCc3ccc(Cl)cc3C2C1 (stereo unspecified)
→ 28, 18
CCCC(Nc1nc(-c2cccnc2)nc2c1cnn2C)c1cccs1 (stereo unspecified)
→ 4, 3
CC(C)CCN1C=NS(=O)(=O)c2ccccc21
→ 6, 2
COc1ccc(OC)c(C2CCCN2CC(=O)NC(C)c2ccc(C)c(C)c2)c1 (stereo unspecified)
→ 6, 4
Cn1c(N)c(C(=O)CN(Cc2ccc(F)cc2)C2CCCCC2)c(=O)n(C)c1=O
→ 6, 3
COC(=O)c1cc2cc(Br)cc(Br)c2oc1=O
→ 11, 5
COCCn1cc(NC(=O)Nc2cc(F)ccc2F)c2ccccc21
→ 17, 9
CN(C)c1ccc2cc(NC(=O)C3CC(=O)N(C4CCCC4)C3)ccc2n1 (stereo unspecified)
→ -3, -4
CCOC(=O)CNC(=O)CSc1nnc2n1CCN2c1ccc(F)cc1
→ -1, -1
CC(c1cc2ccccc2o1)N(C)CCC(=O)NC(=O)NC1CCCC1 (stereo unspecified)
→ -1, -7
Cc1ccccc1Nc1oc2c(c1-c1ccccc1F)c(=O)n(C)c(=O)n2C
→ -5, -8
CC(=O)Nc1ccc(-n2c(CCC(=O)N3CCCC3)ccc2-c2ccc(F)cc2)cc1
→ -5, -7
CN(C)c1noc(C2CC2c2cccnc2)n1 (stereo unspecified)
→ 40, 30
COCCCNC(=O)C(NC(=O)c1ccccc1F)C1CCN(C(=O)Nc2cccc(Cl)c2)CC1 (stereo unspecified)
→ 0, 2
CCCCN(C)c1ncnc2c1sc1nc(C)c3c(c12)CC(C)(C)OC3
→ 6, 2
COc1ccccc1OC1CCN(Cc2nc(-c3ccc(SC)cc3)oc2C)CC1
→ 7, -4
CN(Cc1cccc(Cl)c1)C(=O)c1ccc2c(c1)S(=O)(=O)N=C1CCCCCN12
→ 1, 0
COc1cc(CNC(=O)Nc2cccc(Cl)c2F)ccn1
→ 3, 1
CN1CCC2(CCC1=O)CCN(C(=O)CCc1cc(=O)[nH]o1)CC2
→ 2, 1
CCc1nc2ccc(C(=O)NCc3ccc(OC)cc3)cn2c1N(CC)Cc1ccc(OC)c(OC)c1
→ 12, 5
O=c1oc2ccccc2cc1-c1nnc(Nc2cc(C(F)(F)F)ccc2Cl)s1
→ 2, 6
Cc1ccccc1C1(O)CCN(C(=O)CC(C)c2ccc(F)cc2)CC1 (stereo unspecified)
→ 4, 2
O=C(CN1CCN(S(=O)(=O)c2ccc(Cl)c(Cl)c2)CC1)NC1CCCCCC1
→ -4, -9
CCc1nnc(SCc2cc(=O)n3ccccc3n2)c2cc3sccc3n12
→ 5, 1
COCCN(CC(=O)Nc1cc(C(C)(C)C)nn1-c1ccc(C)cc1C)C(=O)c1ccc(Br)cc1
→ 12, 15
C=C(C)CN1CCN(c2cc(C)nc3c(-c4ccccc4)c(C(F)(F)F)nn23)CC1
→ 4, 5
Cc1occc1CNc1ccc(S(N)(=O)=O)cc1C(F)(F)F
→ 3, 2
CN(Cc1cccc(C(=O)Nc2nccn2C)c1)C1Cc2ccccc2C1
→ 3, -7
O=C(CCCl)Nc1ccc2c(c1)OCO2
→ -3, -8
Cc1[nH]c(=S)c(C#N)c2c1C1(C)CCC3C(CC=C4CC(O)CCC43C)C1C2 (stereo unspecified)
→ 3, 2
CNc1nc2cnc(Nc3cccnc3)cc2n1Cc1ccc(OC)c(OC)c1
→ 10, -1
Cc1c(-c2ccccc2)sc(NC(=O)CN2CCCC2C(=O)N(C)C)c1C(=O)N1CCOCC1 (stereo unspecified)
→ 13, 6
Cc1cc(C)c(S(=O)(=O)NCCc2csc3nc(-c4ccccc4)nn23)c(C)c1
→ -9, -6
O=C(CN1CCN(CCC(=O)Nc2ccc(Cl)cc2F)CC1)Nc1ccc(F)cc1
→ 1, 5
CCOc1cccc(-c2cc(NCCc3cccnc3)n3nccc3n2)c1
→ -3, -7
O=C1NC(=O)C2C1Sc1c(sc(=O)n1Cc1ccccc1)C2c1c[nH]c2ccccc12 (stereo unspecified)
→ -3, -5
CCOC(=O)C1=C(C)NC(C)=C(C(=O)OC)C1c1cccc(Cl)c1Cl (stereo unspecified)
→ -2&-2&0, -8&-5&-31
COC(=O)c1ccc(S(=O)(=O)N2CCC(OC(C)C)CC2)o1
→ 4, -8
Cn1nnc2c(Nc3ccc(F)cc3F)ncnc21
→ 23, 14
CCOc1cc(C2CC(=O)Nc3c2c(C)nn3-c2ccc(Cl)nn2)ccc1OC (stereo unspecified)
→ -6, -10

# (continued)
# Screens in order – NPYLR7 agonist, NPYLR7 agonist max-min
CCOC(=O)c1cc(-c2cccc(NC(=O)[C@@H]3C[C@H]3c3ccccc3)c2)n(-c2ccccn2)n1
→ 24, 7
CCCNC(=O)C12N=CNN=C1N(C)C(=O)N2C (stereo unspecified)
→ 18, 5
O=C(O)c1c(Cl)c(Cl)c(Cl)c(Cl)c1C(=O)N1CCCCCC1
→ -15, -21
CCCCN1Cc2cccc(NC(=O)Cc3csc(CC)n3)c2C1
→ 0, -1
CC(=O)Nc1nc(C(=O)Nc2cc(F)ccc2OCC(F)(F)F)cs1
→ 9, 3
COc1cccc(NC(=O)C(C2CCCC2)N2CCN(C(=O)c3ccc([N+](=O)[O-])cc3)CC2)c1 (stereo unspecified)
→ 10, 7
COCCOc1ccccc1CNc1ccn(C)n1
→ 1, -3
COc1ccc(Cl)c2sc(N3CCN(C(=O)C4=COCCO4)CC3)nc12
→ 8, 4
Cc1ccc(-c2ccc(SCC(N)=O)nn2)cc1
→ 0, -3
Cc1cccc(C)c1OC1CN(C(=O)c2ccn3nnnc3c2)C1
→ 0, -2
CON(C)CC(O)Cn1cc(Nc2cc(C)nc(C(C)(C)C)n2)cn1 (stereo unspecified)
→ 4, 3
CCNC(=O)N(Cc1cccc(OC)c1)CC1CC(c2cccc(F)c2)=NO1 (stereo unspecified)
→ 21, 25
CCC(C)N(CCC(=O)Nc1ccc(C)cc1)c1nc(Cc2cccc(OC)c2)ns1 (stereo unspecified)
→ -11, -4
O=C(O)c1cccc(-c2ccc(/C=N\Nc3nc(N4CCOCC4)nc(N4CCOCC4)n3)o2)c1
→ -3, -13
CN=c1scc(C)n1/N=C(\C)c1cccc(F)c1
→ -2, -3
O=C(C(Cl)Cl)N1CCN(c2nccc(-c3ccc4c(c3)OCO4)n2)CC1
→ 4, 0

# Part of the list above in order of length of the SMILES, high to low.
# Screens in order – NPYLR7 agonist, NPYLR7 agonist max-min
CCNC(=O)N(Cc1cccc(OC)c1)CC1CC(c2cccc(F)c2)=NO1 (stereo unspecified)
→ 21, 25
CON(C)CC(O)Cn1cc(Nc2cc(C)nc(C(C)(C)C)n2)cn1 (stereo unspecified)
→ 4, 3
Cc1cccc(C)c1OC1CN(C(=O)c2ccn3nnnc3c2)C1
→ 0, -2
CCCCN1Cc2cccc(NC(=O)Cc3csc(CC)n3)c2C1
→ 0, -1
COCCOc1ccccc1CNc1ccn(C)n1
→ 1, -3

# A portion of the library (hit frequency here may not be typical).
